GIV Gai3 FP: blocks GIV peptide binding to rat Galpha-i3. P08753. Galpha-i3/FITC-GIV peptide fluorescence polarization, 90 min; stronger effect = lower value; scaled: aluminum fluoride 0%, vehicle 100%. percent of control (FP), % (test concentration not listed). 210,000 compounds, 0.42% hits. AID 1224905;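 active means replicate mean at 85% of control or lower, very high polarization wells dropped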;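 further: wells of about 15 µL received 100 nL stock; the first replicate is given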
Target sequence (P08753 whole entry, looked up): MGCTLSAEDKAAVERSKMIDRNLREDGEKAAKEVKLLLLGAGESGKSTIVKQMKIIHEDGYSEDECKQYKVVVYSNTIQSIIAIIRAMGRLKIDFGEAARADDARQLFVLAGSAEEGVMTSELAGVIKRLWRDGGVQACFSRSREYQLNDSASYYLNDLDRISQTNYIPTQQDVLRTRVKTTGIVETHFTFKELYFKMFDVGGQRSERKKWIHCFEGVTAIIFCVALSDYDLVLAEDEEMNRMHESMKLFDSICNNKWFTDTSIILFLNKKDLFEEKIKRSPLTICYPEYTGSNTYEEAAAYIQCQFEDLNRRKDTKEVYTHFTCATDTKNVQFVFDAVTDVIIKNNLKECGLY
* marks the source's active call; other numbers are inactive results. An excerpt (hit frequency here may not be typical).

SMILES | GIV Gai3 FP
Cn1c(N2CCN(C(=O)C3CCCCC3)CC2)cc(=O)n(C)c1=O | 101
CNc1oc(C)nc1S(=O)(=O)c1ccc(Cl)cc1 | 111
Cc1ccc(C2/C(=C(\O)c3ccc(F)cc3)C(=O)C(=O)N2CCN(C)C)cc1 (centres undefined) | 110
COCCOC(=O)C1=C(C)NC2=C(C(=O)CC(c3cccs3)C2)C1c1cc(OC)c(OC)c(OC)c1 (centres undefined) | 111
Brc1ccc(-c2nc(NCCCN3CCOCC3)c3ccccc3n2)cc1 | 108
CCCN1C(=O)c2ccccc2Sc2cc(NC(=O)c3cccc(Cl)c3)ccc21 | 107
COC(=O)CC(=O)Nc1c(C)nc2sccn2c1=O | 99
O=C(Nc1ccccc1)C(Cc1c[nH]c2ccccc12)NC(=O)C(c1ccccc1)c1ccccc1 (centres undefined) | 113
Cc1cc(C)c(S(=O)(=O)Nc2cccc(C(=O)N3CCCC(C(=O)NC4CC4)C3)c2)c(C)c1 (centres undefined) | 106
Cc1c(C(=O)Nc2ccc(F)cc2F)sc2ncnc(N3CCN(c4ccccn4)CC3)c12 | 102
CCCn1nnc2cc(C(=O)NC(C)C(=O)Nc3ccc(S(N)(=O)=O)cc3)ccc21 (centres undefined) | 105
COC(=O)c1ccc(C(=O)OC)c(NC(=O)c2cc3cc(Br)ccc3oc2=O)c1 | 124
CC(C)Oc1ccccc1C1CC(=O)Nc2c1cc(Br)c1ccccc21 (centres undefined) | 115
NC(=O)c1sc(=S)n2c1[nH]c(=O)c1ccccc12 | 103
CCN1C(=O)/C(=C2/C=Cc3ccccc3N2CC)SC1=Nc1ccccc1 | 109
Cc1csc(-c2cc(S(=O)(=O)Nc3cc(Cl)ccc3F)cn2CC(=O)N2CCCC2)n1 | 109
COc1ccc(C2C(C#N)=C(N)N(c3ccccc3C(F)(F)F)C3=C2C(=O)CCC3)cc1OC (centres undefined) | 101
CCOC(=O)c1ccc2nc(NC(=O)CSCC(=O)OCC(=O)c3ccc(Br)cc3)sc2c1 | 105
COc1cc(C2C(C(=O)OCCOC(C)C)=C(C)NC3=C2C(=O)CC(C)(C)C3)cc(Br)c1O (centres undefined) | 112
COCCNC(=O)c1cc(NS(=O)(=O)c2ccc(Br)cc2)ccc1N1CCNCC1 | 104
CN1c2ccccc2C(C)(C)C12C=Cc1c(ccc3ccccc13)O2 (centres undefined) | 104
Cn1cc(C2N3CC4(C)CN2CC(C)(C3)C4=O)c2ccccc21 (centres undefined) | 112
CCCS(=O)(=O)c1nc2ccc(NS(=O)(=O)c3cc(F)cc(F)c3)cc2s1 | 98
CC(C)(C)c1ccc2[nH]c3c(cc(NCCO)c4c(=O)c5ccccc5c(=O)c43)oc2c1 | 106
O=C(N1CCC(NS(=O)(=O)c2ccc(Cl)cc2)CC1)C1(c2ccccc2)CC1 | 100
COc1ccc(C2/C(=C(\O)c3ccccc3)C(=O)C(=O)N2CCN(C)C)cc1 (centres undefined) | 111
NCCNC(=O)C1CCCNC1=O (centres undefined) | 104
CCc1onc(C)c1C1CCCN1Cc1cn[nH]c1-c1ccc(OC)cc1 (centres undefined) | 126
O=C(NCC1CCCO1)c1n[nH]c2c1CCCCCC2 (centres undefined) | 103
O=C(N[C@H](Cc1ccccc1)C(=O)NCc1cscn1)c1ccccc1Br | 102

Three compounds picked at random from the list so far, as already listed:
SMILES | GIV Gai3 FP
Brc1ccc(-c2nc(NCCCN3CCOCC3)c3ccccc3n2)cc1 | 108
NC(=O)c1sc(=S)n2c1[nH]c(=O)c1ccccc12 | 103
NCCNC(=O)C1CCCNC1=O (centres undefined) | 104

Another view of part of the listing above:
GIV Gai3 FP	Compound
103	O=C(NCC1CCCO1)c1n[nH]c2c1CCCCCC2 (centres undefined)
112	Cn1cc(C2N3CC4(C)CN2CC(C)(C3)C4=O)c2ccccc21 (centres undefined)

(list continues)
SMILES | GIV Gai3 FP
O=C1/C(=C/c2ccc(Cl)cc2)C=C(c2ccccc2)N1c1ccc(Cl)cc1 | 82*
O=c1c(C=Nc2cccc(F)c2)c(C(F)(F)F)[nH]n1-c1ccc([N+](=O)[O-])cc1 | 110
CCn1c(SCc2nc(-c3ccccc3)no2)nnc1-c1ccc2c(c1)OCCCO2 | 98
CCCC(=O)OC1CCC2(C)C(=CCC3C2CCC2(C)C(C(C)CCCC(C)C)CCC32)C1 (centres undefined) | 118
Cc1ccc(-c2noc(CCn3nc(-c4ccc(C)c(C)c4)ccc3=O)n2)cc1 | 111
CC(=O)c1c(C)oc2ccc(N(C(=O)c3ccc([N+](=O)[O-])cc3)S(=O)(=O)c3ccccc3)cc12 | 110
O=C1c2sc3nnc(-c4cccs4)c(=O)n3c2C(=O)N1Cc1ccccc1 | 116
CCc1ccc(C2=Nc3cccnc3N(CC(=O)NC(C)CCc3ccccc3)C(=O)C2)cc1 (centres undefined) | 105
CC1CCN(Cn2nc(-c3ccc(C(C)(C)C)cc3)n(-c3ccccc3)c2=S)CC1 | 102
Cc1ccc(C(=O)NCc2nc(-c3ccc4c(c3)ncn4C3CCCC3)no2)cc1 | 95
Cc1ccc2c(c1)-c1c(ssc1=S)C(C)(C)N2C(=O)CN1CCC(C(N)=O)CC1 | 114
CCOC(=O)c1ccc(NCN2C(=O)S/C(=C\c3ccc(C(=O)OC)cc3)C2=O)cc1 | 108
Cc1sc(C)c(S(=O)(=O)NCC2CCCO2)c1-c1cc(C(F)(F)F)on1 (centres undefined) | 108
O=C(C1CCCN(C(=O)C2CCCC2)C1)N1CCOCC1 (centres undefined) | 105
CCN(c1ccc2sc(C(=O)N3CCN(c4ccccc4F)CC3)cc2c1)S(C)(=O)=O | 104
COc1ccccc1NC(=O)C1=C(C)NC(=S)NC1c1cccc(OC)c1OC (centres undefined) | 106
O=S(=O)(c1ccc(Cl)cc1)N1CCC2(CC1)NCCN=C2NCc1ccccc1 | 99
CC1(C)Cc2ccccc2-c2nc(NCCO)n(Cc3ccccc3)c(=O)c21 | 109
CCCc1cc(Sc2ccc(NC(=O)Nc3ccc(F)cc3F)cc2)n2ncnc2n1 | 102
O=C(Nc1ccc2c(c1)OCO2)C(c1ccccc1)c1ccccc1 | 105
CC(NC(=O)c1ccccc1)c1nc(-c2ccc3c(c2)Sc2ccccc2C(=O)N3C2CC2)no1 (centres undefined) | 98
COc1cccc(Cn2nc3c(S(=O)(=O)N4CCCC4)cccn3c2=O)c1 | 106
O=C(Cc1ccsc1)N1CCN(c2ncnc3c2CCC3)CC1 | 98
Cc1ccc(Nc2ccc3c4c(cc(=O)n3C)-c3ccccc3C(=O)c24)cc1 | 106
CCCCCCCCCCCCC(CCCCCCCCCCCC)COC1OC(COC(C)=O)C(OC(C)=O)C(OC(C)=O)C1NC(C)=O (centres undefined) | 102
Brc1ccc(-c2csc(Nc3ccccn3)n2)cc1 | 101
Cc1cc2c(cc1C)C(c1cccc(Cl)c1)CC(=O)N2 (centres undefined) | 105
COc1ccc(NC(=O)CN2C(=O)/C(=C3\SC(N4CCOCC4)=NC3=O)c3ccccc32)cc1 | 104
Cc1cc(N2CCN(C)CC2)nc(N2CCN(S(=O)(=O)c3ccc(Br)cc3)CC2)n1 | 105
COc1ccc(CNC(=O)c2ccc(-c3nnc(C(=O)Nc4cccc(F)c4)s3)cc2)cc1 | 109
CCOC(=O)c1c(S(=O)(=O)N2CCC(C(=O)Nc3ccc(F)c(Cl)c3)CC2)c(C)n(C)c1C | 106
Cc1ccc(-c2nc(-c3ccc(-c4ccccc4)cc3)[nH]c2-c2ccccc2)cc1C | 104
COC(=O)C1C(=O)NC(SCC(=O)Nc2ccccc2C)=C(C#N)C1c1ccc(C(C)C)cc1 (centres undefined) | 100
N#Cc1c(/N=C/c2ccc(Cl)c(Cl)c2)oc(-c2ccccc2)c1-c1ccccc1 | 73*
Cn1c(=O)n(CC(=O)N2CCCC2)c(=O)c2cc(S(=O)(=O)N3CCOCC3)ccc21 | 96
CC(C)(C)c1cc(CN(CCN(Cc2cc(C(C)(C)C)c(O)c(C(C)(C)C)c2)Cc2cc(C(C)(C)C)c(O)c(C(C)(C)C)c2)Cc2cc(C(C)(C)C)c(O)c(C(C)(C)C)c2)cc(C(C)(C)C)c1O | 104
Cn1nnc2c(Nc3cccc(Cl)c3)ncnc21 | 104
CC(C)OC(=O)CC(=O)CSc1nc2c(c(-c3cccs3)c1C#N)CCCC2 | 116
COc1ccc2[nH]c3c(=O)n(Cc4nc(C5CC5)no4)cnc3c2c1 | 102
Cc1cccc(-c2nccc(Oc3ccc(C(=O)NC4CCCC4)cc3)n2)c1 | 100
O=C(c1cccc(F)c1)N1CCN(c2ccc([N+](=O)[O-])c(N3CCCCC3)c2)CC1 | 123
Cc1c(NC(=O)/C=C/c2ccc(Cl)cc2)c(=O)n(-c2ccccc2)n1C | 101
CCC(C)NC(=O)c1ccc(N2CC3CC(C2)c2cccc(=O)n2C3)c(NS(=O)(=O)CC23CCC(CC2=O)C3(C)C)c1 (centres undefined) | 106
COc1ccccc1C(=O)NCC(=O)N/N=C/c1ccc([N+](=O)[O-])s1 | 100
COc1ccc(-n2nnnc2C2(Nc3ccc4c(c3)OCCO4)CCCC2)cc1OC | 105

Four of the compounds above, with each value named.
structure: Cc1cccc(-c2nccc(Oc3ccc(C(=O)NC4CCCC4)cc3)n2)c1
  GIV Gai3 FP: 100
structure: CC(C)OC(=O)CC(=O)CSc1nc2c(c(-c3cccs3)c1C#N)CCCC2
  GIV Gai3 FP: 116
structure: Cc1c(NC(=O)/C=C/c2ccc(Cl)cc2)c(=O)n(-c2ccccc2)n1C
  GIV Gai3 FP: 101
structure: Cn1c(=O)n(CC(=O)N2CCCC2)c(=O)c2cc(S(=O)(=O)N3CCOCC3)ccc21
  GIV Gai3 FP: 96

Remaining list, next part:
SMILES | GIV Gai3 FP
COc1ccc(/C=c2\sc3nnc(-c4ccc(C)cc4)n3c2=O)cc1OC | 102
CCN(Cc1ccccc1)C(=O)c1c[nH]c2ccc(S(=O)(=O)N(CC)c3cccc(C)c3)cc2c1=O | 101
O=C(NCCCc1ccccc1)C1CCCN(c2ncnc3c2oc2ccccc23)C1 (centres undefined) | 96
COc1cc(OC)cc(C(=O)NCc2nnc(SCC(=O)N3N=C(c4cccs4)CC3c3ccc(F)cc3)n2C)c1 (centres undefined) | 101
CCOc1cc(/C=c2/sc3n(c2=O)C(N)=C(C#N)C(c2ccc(OC)c(OCC)c2)C=3C#N)ccc1OC (centres undefined) | 129
O=C(CCc1nc(CSc2nc3ccccc3[nH]2)no1)Nc1ccc(F)c(Cl)c1 | 104
O=C(CSc1ncnc2sc3c(c12)CCC3)Nc1ccc2c(c1)OCCO2 | 104
CC(=O)C1=NN(c2ccccc2)C(c2ccccc2OCc2ccc(Cl)cc2)N1c1ccc(Cl)cc1 (centres undefined) | 103
Cc1[nH]nc(-c2c(C)sc(C)c2S(=O)(=O)Nc2cccc(Br)c2)c1C | 100
CC(=O)Nc1ccc(CC(=O)N2CCCC(c3nc(-c4ccc(NC(C)=O)cc4)no3)C2)cc1 (centres undefined) | 104
Cc1c(-c2nnc(C3CC3)o2)c(S(=O)(=O)NC2CCCC2)c(C)n1C | 106
Cc1cccc(-c2cc(N3CCN(C(=O)NC(C)(C)C)CC3)ncn2)c1 | 102
O=C(CSc1nc2ccccc2s1)NCc1n[nH]c(=O)c2ccccc12 | 105
COc1ccc(Oc2ccc3c(c2)c2c4n3CCNC4CCC2)cc1 (centres undefined) | 109
CCN(CC)C(=O)Cn1cnc2sc(C(=O)NCc3ccccn3)c(C)c2c1=O | 112

Sorted by value in GIV Gai3 FP (smallest number first): three of the compounds above.
SMILES | GIV Gai3 FP
O=C(NCCCc1ccccc1)C1CCCN(c2ncnc3c2oc2ccccc23)C1 (centres undefined) | 96
O=C(CSc1nc2ccccc2s1)NCc1n[nH]c(=O)c2ccccc12 | 105
CCN(CC)C(=O)Cn1cnc2sc(C(=O)NCc3ccccn3)c(C)c2c1=O | 112

(cont.)
SMILES | GIV Gai3 FP
CCCNS(=O)(=O)c1c(C)sc(C)c1-c1cc(C(F)(F)F)on1 | 106
COc1ccc(C2(CNC(=O)Cc3ccccc3)CCCCC2)cc1OC | 100
O=C(CSc1nc2cc(C(=O)NCC3CCCO3)ccc2c(=O)n1Cc1ccco1)NC1CCCCC1 (centres undefined) | 98
O=C(Nc1c2c(nn1-c1ccc(F)cc1)CSC2)c1ccc(S(=O)(=O)N2CCCCC2)cc1 | 110
CCOC(=O)c1sc2nc(SCC#N)n(Cc3ccc4c(c3)OCO4)c(=O)c2c1C | 109
Clc1cccc(-c2csc(Cc3nc(-c4ccccc4)no3)n2)c1 | 102
CCOC(=O)C1=C(N)n2c(s/c(=C\c3c(F)cccc3Cl)c2=O)=C(C(=O)OCC)C1c1c(F)cccc1Cl (centres undefined) | 108
CC1CN(C(=O)NCC2CCCO2)c2ccccc2O1 (centres undefined) | 98
CCN1C(=O)COc2ccc(-c3noc(C(C)NC(=O)c4ccccc4)n3)cc21 (centres undefined) | 104
O=C(c1ccc(F)cc1F)N1CCc2c([nH]c3ccccc23)C1 | 113
O=C(CCCCCn1c(=S)[nH]c2ccc(Br)cc2c1=O)N1CCN(c2ccccc2)CC1 | 103
COc1ccc(C2C(C#N)=C(N)Oc3c2c(C)nn3-c2ccc(Br)cc2)cc1 (centres undefined) | 102
Cc1ccc(Oc2nccn3c(=O)n(CC(=O)Nc4ccc(C(C)C)cc4)nc23)cc1 | 104
Cc1cc(C)cc(NC(=O)Cn2nc(C(=O)Nc3ccccc3)ccc2=O)c1 | 102
COc1ccccc1NC(=O)c1cc(C)n(-c2ccc(N3CCCC3)nc2)c1C | 92
